Six1-Eya2 blk: inhibitors of human Six1/Eya2 interaction; Q15475+O00167; AlphaScreen GST-Six1/His-Eya2 binding, biochemical; stronger effect = lower value; control for the full effect not named in the record; activity change, % (test concentration not listed); hit rate 0.56% among 360,000; in the data active = activity change below about -65%; inconclusive = about -30% to -65%; inactive = above about -30%; also: % is scaled to controls: 0 for no effect and ±100 for the full control effect; compound concentration not given in the record
Target sequence (O00167 whole entry, looked up): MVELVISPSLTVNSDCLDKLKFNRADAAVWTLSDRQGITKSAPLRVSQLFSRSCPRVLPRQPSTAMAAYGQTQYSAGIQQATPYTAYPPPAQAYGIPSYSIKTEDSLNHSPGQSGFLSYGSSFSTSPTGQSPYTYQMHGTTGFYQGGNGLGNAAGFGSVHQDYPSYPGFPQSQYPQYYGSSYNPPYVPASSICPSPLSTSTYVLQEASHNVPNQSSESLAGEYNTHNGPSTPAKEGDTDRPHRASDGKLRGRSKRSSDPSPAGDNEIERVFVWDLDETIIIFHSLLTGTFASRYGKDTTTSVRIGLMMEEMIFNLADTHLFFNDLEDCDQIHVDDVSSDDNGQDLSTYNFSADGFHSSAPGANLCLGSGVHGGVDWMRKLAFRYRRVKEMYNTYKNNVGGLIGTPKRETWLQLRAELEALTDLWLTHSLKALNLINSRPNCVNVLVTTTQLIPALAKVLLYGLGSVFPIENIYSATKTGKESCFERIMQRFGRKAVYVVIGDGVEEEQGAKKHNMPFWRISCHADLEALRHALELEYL
Target sequence (Q15475 whole entry, looked up): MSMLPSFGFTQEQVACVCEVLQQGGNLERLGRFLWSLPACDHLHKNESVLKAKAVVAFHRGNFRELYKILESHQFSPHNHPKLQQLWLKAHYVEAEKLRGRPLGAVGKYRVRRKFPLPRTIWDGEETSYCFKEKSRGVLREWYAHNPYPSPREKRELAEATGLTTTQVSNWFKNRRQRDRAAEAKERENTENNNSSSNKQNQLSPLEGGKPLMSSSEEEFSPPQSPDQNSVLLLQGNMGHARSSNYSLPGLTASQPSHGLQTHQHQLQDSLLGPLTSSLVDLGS
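Six1/Eya2 binding was read as AlphaScreen signal after compounds were pinned into GST-Six1 plus His-tagged Eya2 (5X stock 250/500 nM) in pH 8.0 Tris/NaCl/TCEP buffer, beads added, then incubated 1 h, 37 C, dark.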
PINK1 expr mod: modulators of PINK1 expression; PINK1 immunofluorescence, high-content cytometry, 24 h; hit rate 0.2% among 410,000; Potency, µM (doses to about 76.6 µM), for the others: top-dose activation (PINK1 increase), actives largely listed as activators; active = well fitted activation curve with a large enough effect; inconclusive = small, poorly fitted or top-dose-only effect; inactive = flat fitted curve, though single readings scatter; cell line not stated here;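 also: potency is read from the fitted curve at half-maximal effect; % of control where 0% means no effect; nearly all actives have a fitted effect of over 65% in size; a mitochondrial uncoupler was the plate control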
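Stable cell line, 250 cells/well, 12 h attachment; compounds pinned at 5 concentrations, 24 h; CCCP control. Fixed with nuclear dye, primary antibodies 12 h at 10 degrees C, secondary plus cell stain; laser-scanning cytometer read.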
CtBP-E1A inh: CtBP/E1A binding inhibition. AlphaScreen GST-E1A/His-CtBP binding, 1536-well; stronger effect = lower value; control for the full effect not named in the record. activity change, % (no concentration beside the values). hit rate 0.49% among 340,000; in the data active means activity change below about -65%; inconclusive means about -30% to -65%; inactive means above about -30%; also: % is scaled to controls: 0 for no effect and ±100 for the full control effect; compound concentration not given in the record
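Protein mix (5X: 125 nM each GST-E1A, His-CtBP) was incubated with pinned compound 2 h at 37 deg C in dark, in 50 mM Tris pH 8.0 buffer with 300 mM NaCl. Glutathione donor and nickel acceptor beads followed; AlphaScreen signal read after 1 h.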
D2 ag: agonists of human D2 dopamine receptor (beta-arrestin) | AID 624465 | activation, % (no concentration beside the values) | hit rate 0.084% among 360,000 | P14416 | DiscoveRx PathHunter D2 beta-arrestin, luminescence, 90 min; 100% = 57 uM dopamine signal; in the data active = activation above about 40%; inconclusive = about 15% to 40%; inactive = below about 15%; also: compound concentration not given in the record; the text of the record calls up to 30% inactive
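Agonist mode: compounds alone added to overnight-plated D2 PathHunter cells for 90 min at 37 C, with 57 uM final dopamine (EC100) defining full response. Beta-arrestin recruitment detected by chemiluminescent reagent, read after 1 h at ambient temperature.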
TRPML1 agonist: activates the human TRPML1 channel; hit rate 0.12% among 410,000; TRPML1-expressing cells, Ca2+ dye fluorescence, FDSS; host cell line not named in the record; reference of the full effect not given here; Q9GZU1; activation, % (test concentration not listed); in the data active = activation above about 50%; inconclusive = about 30% to 50%; inactive = below about 30%; also: 0% is about no effect; the text of the record puts the active cut at 80%
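Kinetic FDSS Ca2+ read in Tet-induced TRPML1-DL cells (ABD Ca8 dye plus quencher, 45-90 min RT loading): baseline, then compound, then 110 s agonist window; EC80 agonist 54-4 at 4uM final added afterwards for a 110 s antagonist window.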
TRPML1 inh: blocks the human TRPML1 channel. hit rate 0.02% among 390,000. AID 624415. TRPML1-inducible cells, Ca2+ dye fluorescence, FDSS; stronger effect = lower value; inhibition of EC80 agonist-evoked calcium signal. activity change, negative = inhibition, % (concentration not given with the values). Q9GZU1; in the data active means activity change below about -50%; inconclusive means about -30% to -50%; inactive means above about -30%;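 also: stimulus is agonist 54-4 at its EC80 concentration; % is scaled to controls: 0 for no effect and ±100 for the full control effect; compound concentration not given in the record; the text of the record puts the active cut at -80%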
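Tet-induced TRPML1-DL cells loaded with Ca8 no-wash calcium dye were read kinetically on FDSS. Compound addition was followed by EC80 agonist 54-4 (4 uM final); inhibition was read over 110 s.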
An asterisk follows results filed as active; ? = inconclusive; . = no result given; [ ] = dose if it differs, or a comment. Outcome played no part in choosing rows. Share with any hit: about 1%.

SMILES	Six1-Eya2 blk	PINK1 expr mod	CtBP-E1A inh	D2 ag	TRPML1 agonist	TRPML1 inh
NC(=O)C1(N2CCCCC2)CCN(C(=O)Nc2ccc(F)cc2)CC1	.	2.2%	.	.	0.9	-6
O=C(CSc1n[nH]c(-c2ccc(Br)cc2)n1)N1CCOCC1	12	-1.4%	-12	-1.2	-0.1	1
Cc1ccc(C(=O)Nc2ccccc2C(=O)O)cc1S(=O)(=O)Nc1ccc(Br)cc1	-28	3.1%	3	3.0	1.8	22
NS(=O)(=O)c1ccc(N=Nc2c(O)ccc3ccccc23)cc1	-16	-0.2%	1	14	0.5	6
O=C(O)c1ccc(CNCc2cccc(Cl)c2Cl)cc1	0	-2.3%	3	-3.7	-0.1	-3
O=C(CNC(=O)c1cccc(F)c1)OCCOc1cccc(Cl)c1	3	0.3%	-14	-2.6	0.8	19
CCc1ccc(N2CC(C(=O)OCC(=O)Nc3ccc([N+](=O)[O-])cc3)CC2=O)cc1 (stereo not drawn)	-5	0.3%	2	1.5	0.3	5
Cc1cc(Cl)c(S(=O)(=O)N(C)C)cc1OCC(N)=O	4	0.2%	9	4.0	0.0	8
Cc1ccc2c(=O)cc(C(=O)Nc3c(C(=O)c4ccccc4)oc4ccccc34)oc2c1	.	2.5%	.	.	-0.4	4
O=C(Cn1nnc(-c2ccccc2Cl)n1)Nc1ccc(Br)cc1	.	0.9%	.	.	2.4	-13
COc1ccc(C(=O)CCc2ccccc2O)c(OC)c1	-4	-0.9%	4	6.4	-0.5	-9
CNC(=S)N1N=C(c2ccc(C)cc2)CC1c1ccc(N(C)C)cc1 (stereo not drawn)	?	0.6%	?	-9.9	0.0	0
O=C(c1ccco1)N(CCO)Cc1cc2cc3c(cc2[nH]c1=O)OCO3	0	1.6%	.	6.7	-1.1	23
Cc1ccccc1S(=O)(=O)c1c(C)cc(C)n(C)c1=O	1	-1.3%	8	-3.0	0.3	7
CS(=O)(=O)c1ccc(Cl)c(NC(=O)CCN2C(=O)C3CC=CCC3C2=O)c1 (stereo not drawn)	9	-0.5%	8	-0.7	0.2	-2
Cc1cc(C(=O)COC(=O)c2cccs2)c(C)n1-c1c(C)n(C)n(-c2ccccc2)c1=O	-7	1.4%	-6	1.5	0.4	6
Cc1c(/C=C/C(=O)c2ccc(C(C)C)cc2)cnn1C	-2	-2.0%	-16	5.6	-0.5	3
CCOC(=O)CCc1c(C)c2ccc(OC3CCCCC3=O)cc2oc1=O (stereo not drawn)	4	4.1%	7	-3.4	-1.2	14
O=C(Cn1cc(C(=O)c2ccncc2)c(=O)c2cc(F)ccc21)Nc1ccc(Cl)cc1	.	0.9%	.	.	-0.2	7
COc1ccc(CCNC(=O)C2CCC(=O)N2CCc2ccccc2)cc1OC (stereo not drawn)	7	0.9%	.	-3.3	-0.5	4
COc1ccc(NC(=O)CSc2nnc(N)n2CC(=O)Nc2ccc(OC)cc2)cc1	3	10%	17	-0.5	-0.5	9
CCOc1cc(/C=N/N=C(N)N)ccc1OCc1ccc(Cl)cc1	-2	-2.4%	7	0.1	-0.4	63
COc1cccc(NS(=O)(=O)c2ccc3c(c2)N(C)C(=O)CC(=O)N3C)c1	.	0.3%	.	.	-0.5	-4
Cc1ccc(C)c(NC(=O)C2CC(O)CN2C(=O)OCc2ccccc2)c1 (stereo not drawn)	8	-0.5%	2	-2.1	1.1	29
CCCCCCCCCCNC(=O)CCn1[nH]c(=O)c2ccccc2c1=O	0	-2.1%	2	-2.2	2.6	-12
Cc1ccsc1-c1nc(CN2CCCC2c2ccc(F)cc2)c(C)o1 (stereo not drawn)	0	-0.1%	2	3.2	-0.1	-6
O=C1NC(c2cccc3ccccc23)Nc2ccc(Cl)cc21 (stereo not drawn)	1	-2.3%	11	5.8	0.2	-5
CC1CC1C(=O)N(C)CC(=O)Nc1ccc(Cl)c(C(F)(F)F)c1 (stereo not drawn)	-4	0.7%	3	-1.3	0.1	-14
Cc1ccc2c(c1)N(CC(=O)NC1CCCc3ccccc31)C(=O)CO2 (stereo not drawn)	3	-1.2%[38.3 µM]	9	-3.8	0.4	23
COc1ccc2nc(Cl)c(C=O)c(N3CCOCC3)c2c1	0	0.7%	-7	-2.4	-0.3	11
Clc1cc(Cl)c(Cl)cc1Cl	1	0.1%	0	-3.0	0.3	4
O=C(Nc1nccs1)c1cc(-c2ccco2)nc2ccccc12	?	3.7%	?	0.4	0.1	17
CC(=O)c1csc(CS(=O)(=O)c2ccccn2)n1	0	1.7%	.	-3.9	0.3	-4
Cc1ccccc1CNc1nc(N(C)C)nc2c1cnn2C	.	7.3%	.	.	1.6	-11
CSCCCNC(=S)Nc1ccc(N2CCOCC2)cc1N1CCOCC1	-5	-1.3%	4	1.5	-0.4	-8
CCOC(=O)c1ccccc1NC(=O)c1cncc(Br)c1	1	3.8%	10	0.0	-0.3	2
Cc1cccc(Nc2nc(N)nc(CSc3nccn3C)n2)c1	1	0.3%	-2	-1.8	-0.6	-7
CCOC(=O)c1ccccc1NC(=O)c1sc2nc3n(c(=O)c2c1C)CCCC3	.	2.2%	.	.	-0.6	16
Cc1cc(C)c(C)c(C(=O)c2ccccc2C(=O)O)c1C	2	-1.1%	.	-3.1	2.9	6
Cc1ccc2c(c1)-c1nc(-c3ccc4c(c3)NC(=O)CO4)cc(-c3ccc(Cl)cc3)c1CO2	.	-0.7%	.	.	-0.1	-2
Cc1ccc(S(=O)(=O)NCCNC(=O)c2ccc(C)nc2)cc1	11	3.2%	-11	5.0	1.3	14
COc1ccc(NC(=O)CCCCCN2C(=O)c3cccc([N+](=O)[O-])c3C2=O)c(OC)c1	0	0.3%	.	-2.7	0.6	8
COc1ccc(CNC(=O)CN(C(=O)c2csnn2)c2cnc3ccccc3c2)cc1	1	-0.6%	24	-11	-1.0	-1
O=C(NCCn1cc(SCc2ccc(C(F)(F)F)cc2)c2ccccc21)c1ccccc1F	.	2.6%	.	.	-0.1	5
Cc1cccc(OCc2nnc(SCC(=O)Nc3cc(C)on3)n2C)c1	4	4.4%[38.3 µM]	-2	0.1	-0.2	3
Cn1ccc2cc(S(=O)(=O)N3CCC(C(=O)NCCc4ccccc4)CC3)ccc21	.	0.8%	.	.	1.4	8
CC(=O)Nc1ccc(Nc2ncnc3c2cnn3C)cc1	.	0.5%	.	.	0.2	-4
O=C(COCc1cc(-c2cccs2)on1)Nc1ccc(OC(F)(F)F)cc1	.	0.9%	.	.	0.9	27
O=C(NCc1ccc(F)cc1)C1CCN(S(=O)(=O)c2ccc3c(c2)CCCN3C(=O)C2CCC2)CC1	.	-0.8%	.	.	0.7	6
COc1ccc(S(=O)(=O)N2CCOCC2)cc1C(=O)NCc1ccccc1CN1CCCC1	6	1.3%	-3	-4.1	1.9	9

For convenience, part of the list above.
SMILES	Six1-Eya2 blk	PINK1 expr mod	CtBP-E1A inh	D2 ag	TRPML1 agonist	TRPML1 inh
Cc1ccc(S(=O)(=O)NCCNC(=O)c2ccc(C)nc2)cc1	11	3.2%	-11	5.0	1.3	14
COc1ccc(NC(=O)CCCCCN2C(=O)c3cccc([N+](=O)[O-])c3C2=O)c(OC)c1	0	0.3%	.	-2.7	0.6	8
COc1ccc(CNC(=O)CN(C(=O)c2csnn2)c2cnc3ccccc3c2)cc1	1	-0.6%	24	-11	-1.0	-1

Next compounds:
SMILES	Six1-Eya2 blk	PINK1 expr mod	CtBP-E1A inh	D2 ag	TRPML1 agonist	TRPML1 inh
CN(C)c1ccc(CNc2ccccn2)cc1	-27	1.8%	-29	-2.4	1.3	-15
COc1ccc(C(=O)Nc2cnccn2)cc1[N+](=O)[O-]	-2	-0.5%	-1	0.4	0.2	2
CC1=NN(c2ccc(Cl)cc2)C(=O)C1C(c1cccc(O)c1)c1c(C)[nH]n(-c2ccc(Cl)cc2)c1=O (stereo not drawn)	-25	5.9%	0	-2.9	9.8	27
CN(C[C@H](Cc1ccccc1)N(C[C@H](c1ccccc1)N(CCc1ccccc1)N=O)N=O)N=O	-12	-0.2%	-7	-2.2	-0.4	-13
CC(=O)N1c2ccccc2N(Cc2ccc(C)cc2C)C(=O)C1(C)C	-4	7.4%	4	0.6	0.4	-6
COc1ccc(OC)c(NC(=O)Nc2nnc([C@H]3C[C@H](O)[C@@H](CO)O3)s2)c1	-5	0.9%	-6	-3.4	-0.6	.
CCN(CCC#N)c1ccc(/C=N/Nc2nc(C)cc(=O)[nH]2)c(C)c1	-4	12%	1	-0.6	-0.2	-10
O=C(CCn1cnc2ccccc2c1=O)Nc1nc2c(s1)CCCC2	22	5.4%	0	-2.8	-0.7	-6
COc1ccc(CNC(=O)C2CC(C)=C(C)CC2C(=O)O)cc1OC (stereo not drawn)	0	-1.8%	1	1.1	-0.4	-9
COC(=O)c1ccc(NC(=O)CN2C(=O)c3cccc4cccc2c34)cc1	.	1.9%	.	.	-0.4	3
O=C1Nc2ccc(Cl)cc2C(=O)C1(F)c1ccccc1 (stereo not drawn)	-4	3.0%	5	2.9	0.5	16
CC(NC(=O)Cn1nc(-c2ccccc2)c2ccccc2c1=O)c1ccccc1 (stereo not drawn)	3	-1.4%	-5	-6.0	-0.5	-10
CCOC(=O)c1c(C)c(C(=O)NC(C)COC)c(C)n1CC (stereo not drawn)	0	?	2	-2.1	-0.3	1
CCC(Oc1ccccc1)C(=O)Nc1cc(C(F)(F)F)ccc1N1CCOCC1 (stereo not drawn)	16	6.6%	0	0.4	5.9	-7
O=C(O)C(=Cc1ccc([N+](=O)[O-])cc1)CCc1ccccc1	0	0.8%	4	-4.9	-0.3	10
SC(COCc1ccccc1)CN1CCN(Cc2ccc3c(c2)OCO3)CC1 (stereo not drawn)	-29	0.3%	-15	0.8	-0.2	-2
COC(=O)C(Cc1c[nH]c2ccccc12)NC(=O)c1cccs1 (stereo not drawn)	0	-0.2%	.	0.2	0.3	4
CCN(CC)S(=O)(=O)c1ccc(C(=O)Nc2c3c(nn2C(C)(C)C)CS(=O)(=O)C3)cc1	6	1.7%[38.3 µM]	4	-2.3	-0.2	-7
Cc1cc(C)cc(NC(=O)CSc2nnc(Cn3c(=O)sc4ccccc43)n2C)c1	5	1.8%	-4	-2.8	2.3	16
Cc1ccc(C)c(N2CCN(CCCNC(=O)CCn3c(=O)c4cccn4c4cccnc43)CC2)c1	-8	1.8%	-13	-2.0	-0.9	-3
O=C(CNCCc1ccccc1)N1CCc2ccccc2C1	6	0.2%	-5	-3.5	-0.4	-23
COCCn1nnnc1C(C(C)C)N1CCN(C(=O)c2ccco2)CC1 (stereo not drawn)	14	-1.2%	-1	3.0	0.9	-7
CCOC(=O)c1ccc(NC(=O)Cn2nnc(-c3ccccc3F)n2)cc1	-4	0.5%	11	1.7	1.0	1

One compound at a time (already shown).
`Cc1cc(C)cc(NC(=O)CSc2nnc(Cn3c(=O)sc4ccccc43)n2C)c1` is entered as Six1-Eya2 blk = 5; PINK1 expr mod = 1.8%; CtBP-E1A inh = -4; D2 ag = -2.8; TRPML1 agonist = 2.3; TRPML1 inh = 16
`CCOC(=O)c1ccc(NC(=O)Cn2nnc(-c3ccccc3F)n2)cc1` is entered as Six1-Eya2 blk = -4; PINK1 expr mod = 0.5%; CtBP-E1A inh = 11; D2 ag = 1.7; TRPML1 agonist = 1.0; TRPML1 inh = 1

Compound activity from PubChem.
